# LANA-nucl inh: inhibitors of KSHV LANA binding to nucleosomes; FITC-LANA1-23 / chicken nucleosome fluorescence polarization; stronger effect = lower value; AID 720717; z-score (test concentration not listed); 51,000 compounds, 0.3% hits;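 active = both repeat wells score below -2 in polarization z-score versus plate sample wells, excluding overly bright wells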;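 note: 100 nL library stock added to about 30 µL; numbers are from one replicate; some results filed as inactive read as strong as hits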
#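 Assay system: purified chicken nucleosomes with FITC-labelled LANA N-terminal peptide (1-23) / Probe or stimulus: 50 nM FITC-LANA1-23 probe / Compound dosing: pin-transferred compound, 100 nL / Times: compound with peptide–nucleosome mix 10–45 min at room temperature / Technique: fluorescence polarization, 480 nm excitation, 535 nm parallel and perpendicular emission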
# BasE inh: inhibitors of Acinetobacter baumannii siderophore enzyme BasE; purified BasE, fluorescence polarization binding displacement; inhibition, % (concentration not given with the values); 84,000 compounds, 0.1% hits;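 active = both replicates above 25% with normal brightness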;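 note: 0% = negative plate control signal and 100% = positive plate control signal; stock transfer was 100 nL into about 30 µL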
# Starred values were filed as active, the others as inactive; . = no result given; & = joins results of further samples. This is a subset (hit frequency here may not be typical).
SMILES,LANA-nucl inh,BasE inh
COc1ccc(NC(=O)OC(C)C)cc1,.,1.6
O=C(O)c1ccccc1N(Cc1ccc(Br)cc1)C(=O)c1ccco1,.,4.0
Cc1ccc(NC(=O)COC(=O)c2ccc(OCc3c(C)noc3C)cc2)c(C)c1,.,0.9
CCCNC(=O)NC1CCCCCCC1,-0.22,-0.9
O=C(O)c1ccc(NC(=NCc2ccccc2)N2CCN(c3ccc(F)cc3)CC2)cc1,-0.88,2.0
COCC(C)n1c(COc2ccccc2F)nnc1SCC(=O)NC(=O)NC1CCCCC1 (configuration not stated),.,1.1
CC1(C)CC(=O)C=C(Nc2ccccc2NC(=O)c2cnccn2)C1,-0.017,0.4
CCN(c1ccccc1C)S(=O)(=O)c1ccc(C)cc1,1.7,-1.5
COc1ccc(C2=NS(=O)(=O)N(C)C(C(=O)N3CCCCC3)=C2)cc1,0.76,0.7
COc1cc2cc(C)c(SCC(=O)N3CCN(C(=O)c4ccco4)CC3)nc2cc1OC,-0.76,0.7
CC1(C)C(=O)OC(C(=O)c2ccccc2)C(C)(C)C1=O (configuration not stated),0.91,-0.2
CCn1c(C2CC2)n[nH]c1=S,.,2.4
CCOc1cc(Cl)c(S(=O)(=O)n2ccnc2CC)cc1Cl,0.87,0.1
Cc1nc(S(=O)(=O)NCc2cc(F)cc3c2OCOC3)cn1C,0.16,1.0
COc1cc2oc(=O)c3c(c2cc1Cl)CCCC3,.,1.1
CCOC(=O)c1snc(-c2ccc(Cl)cc2)c1N,0.9,4.1
CN(Cc1cc(=O)n2ccsc2n1)c1ccccc1,1.3,0.1
O=C(NCC(=O)N1CCOCC1)c1ccc(Br)cc1,-1.5,1.5
Cc1ccccc1-c1nc2scc(-c3cccs3)c2c(=O)o1,2,-4.7
CCc1ccc(Oc2c(C(F)(F)F)oc3c(CN(C)C)c(O)ccc3c2=O)cc1,.,1.2
Cn1cnnc1SC/C(O)=C(\C#N)c1nc2ccccc2[nH]1,.,4.7
Cc1sc2ncnc(SCc3ccccc3C#N)c2c1C,.,-1.8
COc1ccccc1C(=O)NCC(=O)N(C)Cc1cccc(F)c1,.,-4.3
Cc1nc(NC(CC(C)C)C(=O)O)c2nc(C)oc2n1 (configuration not stated),0.007,-0.3
O=CN1CCN(C(=O)c2ccco2)CC1,-0.43,2.9
O=C(NCc1ccccc1)C1CCN(c2cnccn2)CC1,0.44,1.3
N#Cc1cc2c([nH]c1=S)CCC2,0.55,9.4
Cn1c(-c2ccccc2)cc(C=Nc2ccccc2)c1O,.,0.7
Cc1nc2c(c(C)nn2C)c(C)c1CCC(=O)NC1CCCCC1,2.4,-3.1
CCc1nnc(NC(=O)C2CCCN2C(=O)Nc2ccccc2)s1 (configuration not stated),-1.2,-0.1
COCC(C)n1c(C)cc(C(=O)COC(=O)c2c(C)nn(-c3ccccc3)c2C)c1C (configuration not stated),.,-1.7
CCCN(CCC)S(=O)(=O)c1ccc(C(=O)NC(=S)Nc2ccc(F)cc2)cc1,.,0.8
O=C(c1cc(Cl)c(O)c(Cl)c1)N1CCc2ccccc2C1,.,3.0
Cc1ccc(-c2nn(Cc3ccccc3)cc2C(=O)N2CCC2)cc1,.,0.0
CN(C)/C=N/C(=S)N1CCOCC1,.,1.7
CC(=O)Nc1sc2c(c1C#N)CCN(C(C)=O)C2,-1.7,1.8
CCC(=O)Oc1ccc(C(=O)Nc2cc(C(=O)O)cc(C(=O)O)c2)cc1,.,2.8
NNC(=O)c1c(O)c2cccc3c2n(c1=O)CCC3,0.36,1.7
CCOC(=O)c1cc(-c2ccc(S(=O)(=O)Nc3cccc(SC)c3)s2)on1,1.3,-2.1
Cc1ccc(Sc2c(C)c3cc4c(cc3[nH]c2=O)OCO4)cc1,.,0.5
CSc1ccc(NC(=O)N2C3CCC2CC(O)(c2cccnc2)C3)cc1 (configuration not stated),-0.59,1.3
CC1CCc2nc(NC(=O)c3ccc(Cc4ccccc4)cc3)sc2C1 (configuration not stated),.,2.6
COc1ccc(/C=C2\SC(=S)N(CCCC(=O)O)C2=O)cc1OC,.,0.8
CSc1ccc(CCNC(=O)C(C)n2sc3ccccc3c2=O)cc1 (configuration not stated),-0.98,0.9
O=c1cc(-c2ccc(O)c(O)c2)oc2cc(O)cc(O)c12,-0.2,2.0
CCN(CC)C(=O)COc1ccc2c(CC(=O)O)coc2c1,.,1.3
COc1ccc(-c2csc(Nc3ccc(S(=O)(=O)Nc4cc(C)on4)cc3)n2)cc1C,.,0.8
O=C(CSc1nnc(CNC(=O)c2cccs2)o1)Nc1ccccc1,0.42,-0.5
CCOc1cnc(-c2ccccc2)o1,-0.18,.
O=C(O)CCC(C(=O)O)N1C(=O)/C(=C/C=C/c2ccco2)SC1=S (configuration not stated),-2.2*,9.4
# Next records:
SMILES,LANA-nucl inh,BasE inh
Cc1nc(C)n(C(C)CNS(=O)(=O)c2ccc(C)c(C)c2)n1 (configuration not stated),-0.09,1.1
O=C(Nc1ccccc1)N1CCCN(c2c(Cl)cncc2Cl)CC1,.,1.3
Cc1ccc(NC(=O)c2oc3ccc(S(=O)(=O)N4CCCC4)cc3c2C)c(C)c1,-0.47,-0.2
Cc1cccc(-n2nc(C)c3c(C)cc(=O)oc32)c1,0.16,1.4
O=C(CCCn1c(=O)oc2ccccc21)NNc1cccc(C(=O)O)c1,.,2.5
N#C/C(C(N)=O)=C(/S)Nc1ccccc1,.,1.6
CSc1c(NC(=O)/C=C\C(=O)O)cccc1C(F)(F)F,-0.44,1.3
COCc1cc(C)nc(SCC(=O)OC(C)C)c1C#N,-0.15,1.1
CC1CCCC(C)N1C(=O)COC(=O)CN1C(=O)c2ccccc2C1=O (configuration not stated),.,3.6
O=C(N=Nc1c(O)n(CN2CCOCC2)c2ccc(Br)cc12)c1ccc(Br)cc1,0.2,-1.5
CC(C)(C)C1CCCCC1NC(=O)c1ccncc1 (configuration not stated),-0.002,0.8
COC(=O)C(NC(=O)c1ccc(Cl)cc1Cl)C(C)C (configuration not stated),-0.55,2.3
CCOC(=O)C1Cc2c([nH]c3ccccc23)CN1 (configuration not stated),-0.24,-1.9
CC1CC(C)CN(C(=O)c2ccc(C(F)(F)F)cc2)C1 (configuration not stated),.,1.7
Cc1noc(C)c1CSCC(=O)O,.,-2.0
CCN(CC)C(=O)c1cnc(-c2ccccc2)nc1C1CCNCC1,-0.17,0.3
CC(C)(CNC(=O)Nc1ccc(Cl)c(Cl)c1)N1CCOCC1,.,-7.1
Cc1ccc(C=Nc2ccc(Cl)cc2)o1,0.92,2.5
Cc1ccc(CNC(=O)c2noc(C)c2Cn2nc(C)cc2C)cc1,0.26,-0.2
O=C(Nc1ccc(S(=O)(=O)c2ccc(NC(=O)c3ccco3)cc2)cc1)c1ccco1,1.8,0.4
O=S(=O)(c1ccc(F)cc1)N1CCN(S(=O)(=O)c2cccs2)CC1,-0.59,0.6
O=C(c1ccc(F)cc1)N1CCCc2ccccc21,0.97,-4.0
Cc1cccc(C)c1NC(=O)CNc1ccccc1,0.32,3.2
CCCCN(C)S(=O)(=O)c1ccc2c(c1)CC(C)N2C(C)=O (configuration not stated),-0.37,-0.2
C/C(N)=C(/C#N)C(=O)CSc1nnc(-c2cccnc2)n1C1CCCCC1C (configuration not stated),.,-0.1
c1coc(-c2cc(-c3nc4c5ccccc5ncn4n3)n[nH]2)c1,-0.48,-2.9
CCCCOc1cccc(OCCCC)c1Nc1cc(C)on1,0.79,0.4
NC(=O)C1CCN(C(=O)NC2CC(=O)N(c3ccc(Cl)cc3)C2)CC1 (configuration not stated),-1.9,1.1
O=C1OCCC1Sc1nc(-c2ccccc2)cs1 (configuration not stated),-0.77,-0.5
O=S(=O)(c1ccc(OCC(O)CN2CCCCC2)cc1)N1CCOCC1 (configuration not stated),.,0.6
CCn1c2ccccc2c2nnc(SCC(=O)Nc3nccs3)nc21,0.87,-0.4
CSc1sc(-c2nc(C(C)(C)C)cs2)c2c1C(=O)CCC2,.,-0.1
CC(OC(=O)Cn1ccc(C(F)(F)F)n1)c1nc2ccccc2c(=O)[nH]1 (configuration not stated),.,14
NC(=S)N/N=C/c1nc2ccccc2n1Cc1ccccc1,-0.85,2.2
O=C(O)CC1C(=O)NCCN1C1Cc2ccccc2C1 (configuration not stated),-0.35,-1.3
NCCC1CCCO1 (configuration not stated),.,-0.1
CCCN(C)S(=O)(=O)c1ccc(I)cc1,0.77,4.3
CCCNC(=O)C1=C(C)C(=O)OC12CCN(S(C)(=O)=O)CC2,.,2.0
Cc1cc(NC(=O)COC(=O)C2CSC3(C)CCC(=O)N23)no1 (configuration not stated),.,3.0
Cn1nnnc1SCC(=O)c1ccc(Br)s1,.,0.4
CN1CCOCCOCCOCC1,0.58,-2.7
CCCn1c(C)cc(C(=O)CN(C)S(=O)(=O)c2ccc(F)cc2)c1C,.,-3.5
Cc1ccc2c(CC(=O)NCC(=O)Nc3c(C)cccc3C)coc2c1,.,3.1
c1ccc(CC2COC(c3cccn3Cc3ccccc3)=N2)cc1 (configuration not stated),-0.42,0.4
COc1cccc(NC(=O)c2cc3cc4ccc(C)cc4nc3o2)c1,-0.28,3.9
Cn1cc(/C=C(/C#N)c2ccc(C(=O)O)cc2)c2ccccc21,2,-2.4
O=c1ccsn1Cc1ccccc1,1,0.2
CCCCCC1/C(=N/OC(C)=O)CCC1CC(=O)OC (configuration not stated),.,-0.8
N#CCC(=O)N/N=C/c1ccc(OC2CSC2)cc1,-0.74,2.4
CCC(=O)N1CCN(c2ccc(N3CCOCC3)nn2)CC1,-0.033,0.6

# Record cards (already shown). Order of values: LANA-nucl inh	BasE inh
# Results for `CCCCOc1cccc(OCCCC)c1Nc1cc(C)on1` : 0.79	0.4
# Results for `COCC(C)n1c(COc2ccccc2F)nnc1SCC(=O)NC(=O)NC1CCCCC1` (configuration not stated) : .	1.1

# (more compounds)
SMILES,LANA-nucl inh,BasE inh
CCCN1C(=O)/C(=N\OCC(=O)N2N=C(c3ccc(Cl)cc3)CC2c2ccco2)c2ccccc21 (configuration not stated),.,-1.5
Cc1cc(C)c2c(CC(=O)NN3CCN(C)CC3)coc2c1,-0.58,-4.6
C=CCn1c(COc2ccc(OC)cc2)nnc1SC(C(=O)NC(=O)NC)c1ccccc1 (configuration not stated),.,-4.7
CC(C)c1cccc2c1OC(C(C)C)C(=S)N2CC(=O)O (configuration not stated),.,1.8
COC(=O)C1=C(C)NC(C)=C(C(=O)OC)C1c1ccccc1[N+](=O)[O-],0.2&0.12&0.51&-0.51&0.3&-0.044,-0.1&-2.8&0.5
CN(CC(=O)Nc1ccc(N2CCOCC2)cc1)c1nc(-c2ccccc2)nc2ccccc12,.,2.5
Fc1ccc(OC2OCCOC2Oc2ccc(F)cc2)cc1 (configuration not stated),.,1.9
CC1=C(CC(=O)O)c2cc(F)ccc2/C1=C\c1ccc(S(C)=O)cc1 (configuration not stated),0.26&0.14,3.0
CCC(C)NS(=O)(=O)c1c[nH]c(C(=O)OC)c1 (configuration not stated),-2,0.5
COCCCNc1nc2ccccc2[nH]c1=O,.,-0.3
COc1ccc(OC)c(N=C2SCCCN2C(=O)c2cc(=O)[nH]c3ccccc23)c1,.,1.0
Cc1noc(C(F)(F)F)c1C(=O)O/N=C(\N)c1ccc(C(F)(F)F)cc1,0.49,1.9
O=C(Cn1nc(Cc2ccncc2)c2ccccc2c1=O)N1CCCC1,-0.65,-0.8
Cc1ccc(N(C(C)C(=O)N(C)C)S(C)(=O)=O)cc1 (configuration not stated),-0.039,2.5
N#Cc1ccccc1S(=O)(=O)N1CCN(Cn2c(Cc3ccccc3)nc3ccccc32)CC1,.,1.7
c1ccc(Cn2c(SCC3CCCCO3)nnc2-c2ccco2)cc1 (configuration not stated),.,-0.2
CC1(C)S[C@@H]2[C@H](NC(=O)C3(N)CCCCC3)C(=O)N2[C@H]1C(=O)O,-0.41,-2.2
Cc1cc(C)n2nc(SCC(=O)N3c4ccccc4CC3C)nc2n1 (configuration not stated),.,0.9

# 16 structures out of the list, ordered by length of the SMILES, low to high:
SMILES,LANA-nucl inh,BasE inh
O=c1ccsn1Cc1ccccc1,1,0.2
COCCCNc1nc2ccccc2[nH]c1=O,.,-0.3
N#CCC(=O)N/N=C/c1ccc(OC2CSC2)cc1,-0.74,2.4
CCCCCC1/C(=N/OC(C)=O)CCC1CC(=O)OC (configuration not stated),.,-0.8
CCC(C)NS(=O)(=O)c1c[nH]c(C(=O)OC)c1 (configuration not stated),-2,0.5
Cc1cc(C)c2c(CC(=O)NN3CCN(C)CC3)coc2c1,-0.58,-4.6
Cc1ccc(N(C(C)C(=O)N(C)C)S(C)(=O)=O)cc1 (configuration not stated),-0.039,2.5
Cc1cc(C)n2nc(SCC(=O)N3c4ccccc4CC3C)nc2n1 (configuration not stated),.,0.9
Cn1cc(/C=C(/C#N)c2ccc(C(=O)O)cc2)c2ccccc21,2,-2.4
CC1=C(CC(=O)O)c2cc(F)ccc2/C1=C\c1ccc(S(C)=O)cc1 (configuration not stated),0.26&0.14,3.0
Cc1noc(C(F)(F)F)c1C(=O)O/N=C(\N)c1ccc(C(F)(F)F)cc1,0.49,1.9
COC(=O)C1=C(C)NC(C)=C(C(=O)OC)C1c1ccccc1[N+](=O)[O-],0.2&0.12&0.51&-0.51&0.3&-0.044,-0.1&-2.8&0.5
CN(CC(=O)Nc1ccc(N2CCOCC2)cc1)c1nc(-c2ccccc2)nc2ccccc12,.,2.5
N#Cc1ccccc1S(=O)(=O)N1CCN(Cn2c(Cc3ccccc3)nc3ccccc32)CC1,.,1.7
CC1(C)S[C@@H]2[C@H](NC(=O)C3(N)CCCCC3)C(=O)N2[C@H]1C(=O)O,-0.41,-2.2
CCCN1C(=O)/C(=N\OCC(=O)N2N=C(c3ccc(Cl)cc3)CC2c2ccco2)c2ccccc21 (configuration not stated),.,-1.5

# Bioassay records deposited in PubChem BioAssay by ICCB-Longwood Screening Facility, Harvard Medical School.
